Screens from PubChem BioAssay.
AF4-AF9 inh: blocks AF4 peptide binding to human AF9; P42568; AlphaScreen, biotin-AF4 peptide binding to FLAG-AF9; inhibition, % at 10 µM; 350,000 tested, 0.47% active; AID 651704;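 active = every replicate reaching a set inhibition limit, whatever the replicate mean, cut at about 25% in these data; inconclusive = mean inhibition reaches that limit but some replicates miss it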;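 also: 0% = plate neutral control median and 100% = total signal loss; the record names both 10 and 1 µM as test concentration; the first replicate is given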
Vif TR-FRET: inhibitors of Vif binding to APOBEC3G peptide, primary screen, biochemical, TR-FRET, GST-Vif 1-94, biotin-A3G peptide, dose response retest (AID 1117319). TR-FRET GST-Vif / biotin-A3G peptide binding; higher % means a stronger effect; test concentration not given here; strong numbers were not always called active. one-dose inhibition, %; IC50 in µM for titrated hits. 260,000 tested, 0.57% active;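 active = above the screen mean plus three standard deviations and confirmed in dose response; inconclusive = results disagree or hit not tested in dose response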;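 also: Vif residues 1-94 fused to GST binding biotinylated APOBEC3G peptide 110-148; 0% = full assay without inhibitor and 100% = GST in place of GST-Vif; retest series ran down from 100 µM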
HNF4A DNA FP: change in binding of human HNF4 alpha to DNA; P41235; HNF4a-FITC DNA binding, fluorescence polarization, 1 h; activity change, % at 10 µM; 360,000 tested, 0.3% active; AID 1224865; in the data active = activity change above about 30%, passing the limit was not always enough;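 also: controls were the assay level and a saturating level of protein; the project sought stronger binding though the title names inhibitors; some compounds called inactive have numbers as strong as hits; positive values seem to mean higher polarization but the record does not say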
Target sequence (P41235 whole entry, looked up): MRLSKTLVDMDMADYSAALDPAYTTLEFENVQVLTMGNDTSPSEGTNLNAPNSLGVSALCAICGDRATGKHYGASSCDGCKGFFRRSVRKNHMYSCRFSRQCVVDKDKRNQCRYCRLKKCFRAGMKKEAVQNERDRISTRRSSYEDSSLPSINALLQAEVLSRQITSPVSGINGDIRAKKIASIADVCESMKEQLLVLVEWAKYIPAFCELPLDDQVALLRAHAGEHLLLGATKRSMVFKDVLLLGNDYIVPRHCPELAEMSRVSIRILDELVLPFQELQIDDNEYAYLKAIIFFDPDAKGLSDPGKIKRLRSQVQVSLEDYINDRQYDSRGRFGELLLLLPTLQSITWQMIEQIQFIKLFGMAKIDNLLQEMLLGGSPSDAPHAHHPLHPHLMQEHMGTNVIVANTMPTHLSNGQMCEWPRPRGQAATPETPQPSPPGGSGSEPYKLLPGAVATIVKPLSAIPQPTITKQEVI
FGF22 binding: FGF22 (human) thermal shift binding | Q9HCT0 | recombinant FGF22 thermal shift, SYPRO orange fluorescence; percent of sucrose octasulfate shift, DMSO zero | calls only at 9.99 µM | 340,000 tested, 1.5% active | AID 651658;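 active = melting point raised past a set limit in the mean and every replicate; inconclusive = no clear call; three in four hits are not shown here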
Target sequence (Q9HCT0 whole entry, looked up): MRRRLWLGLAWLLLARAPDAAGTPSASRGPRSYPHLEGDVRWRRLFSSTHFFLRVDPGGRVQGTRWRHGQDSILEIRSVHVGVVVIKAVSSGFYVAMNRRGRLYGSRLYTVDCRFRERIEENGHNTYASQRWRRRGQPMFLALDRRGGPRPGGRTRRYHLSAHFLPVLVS
rRNA inh HTS: inhibits bacterial ribosomal RNA function over humanized ribosomes; E. coli WT GFP vs humanized-ribosome RFP mutants, fluorescence, 24 h; stronger effect = lower value; DMSO median 0, no signal -100; 350,000 tested, 1.6% active; GFP signal change (wild-type ribosome), % (concentration not given with the values);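 active = significant combined selectivity score with lowered wild-type GFP, culture density cut under 30%, mutant RFP and density less affected; inactive = any of these conditions unmet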; also: one replicate is shown; some compounds called inactive have numbers as strong as hits
ALR H2O2 inh: blocks human ALR sulfhydryl oxidase activity; P55789; purified ALR, DTT oxidation, H2O2 HRP-luminol luminescence; inhibition, % (test concentration not listed); 290,000 tested, 3.8% active; AID 485317;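 active = mean and each replicate at 75% or more; inconclusive = only one of the two met; inactive = neither met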;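 also: stock transfer was 7.5 nL into about 7.5 µL; 0% = neutral wells and 100% = wells with inactivated enzyme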
Target sequence (P55789 whole entry, looked up): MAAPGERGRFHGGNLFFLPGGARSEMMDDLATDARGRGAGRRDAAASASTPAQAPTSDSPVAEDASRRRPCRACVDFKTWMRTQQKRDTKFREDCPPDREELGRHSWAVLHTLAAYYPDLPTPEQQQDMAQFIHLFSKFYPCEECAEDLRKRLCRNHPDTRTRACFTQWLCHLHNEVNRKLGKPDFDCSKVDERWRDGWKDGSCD
E coli growth: inhibitors of Escherichia coli growth | OD600, 23 h; stronger effect = lower value | OD600 absorbance (no concentration beside the values) | 330,000 tested, 0.21% active | AID 1053175;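 active = OD600 absorbance below the run mean of sample wells minus 3.6 SD, in any replicate, cut at about 0.56 in these data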;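 also: stock transfer was 300 nL into about 60 µL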
rRNA inh HTS OD600: further read-out of rRNA inh HTS, marked with its call; OD600 change, %; measured here: OD600 growth;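 optical density of the mix in the first replicate; 0 = DMSO median and -100 = no signal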
rRNA inh HTS RFP: further read-out of rRNA inh HTS, marked with its call; RFP signal change, %; measured here: RFP humanized mutant strains;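 first replicate; 0 = DMSO median and -100 = no signal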
* hit, by the source's call; i = inactive; u = inconclusive; x = not tested or not shown.

SMILES | AF4-AF9 inh | Vif TR-FRET | HNF4A DNA FP | FGF22 binding | rRNA inh HTS | rRNA inh HTS OD600 | rRNA inh HTS RFP | ALR H2O2 inh | E coli growth
COC(=O)c1cc(S(=O)(=O)NCc2ccccc2)c[nH]1 | -0.5 | x | 1.6 | i | -10 | -9 | -3.1 | -1 | 0.72
COc1ccc(NC(=O)N(C)C[C@H]2OCCCC[C@H](C)Oc3ccc(NS(=O)(=O)c4ccc(Cl)cc4)cc3C(=O)N([C@@H](C)CO)C[C@@H]2C)cc1 | 4.2 | x | x | i | 1 | -7 | 2.6 | x | x
Cc1onc(-c2c(Cl)cccc2Cl)c1COC(=O)c1ccc(Cl)cc1[N+](=O)[O-] | x | -2% | 0.2 | i | 7 | 8 | 4.5 | -6 | 0.63
O=C(c1cccc(Cl)c1)N1CCN(C(=O)c2ccco2)CC1 | x | 0% | -0.4 | x | x | x | x | -6 | 0.79
Cc1cc(C)n(-c2nc(C(=O)O)cs2)n1 | -2.7 | 6% | 0.2 | i | 11 | 6 | -0.5 | -15 | 0.65
COc1ccccc1N(CC(=O)NC1CCCC1)C(=O)CCCC(=O)Nc1ccccn1 | 2.1 | x | 3.1 | i | 2 | 5 | -0.9 | x | 0.7
C=CCN(CC=C)C(=O)C1c2ccccc2Oc2ccccc21 | -1.4 | -6% | 1.4 | x | -9 | -30 | -3.4 | x | x
CC(C)n1cc(CN2CCC(C(=O)Nc3cccc(-c4cccc(Cl)c4)c3)CC2)cn1 | 9.1 | x | 6.7 | i | x | x | x | -22 | 0.65
Cc1noc(NS(=O)(=O)c2ccc(NC(=O)C(F)(F)F)cc2)c1C | -4.4 | x | -0.5 | i | 24 | 17 | 1.4 | 4 | 0.7
C[C@H]1CN([C@@H](C)CO)C(=O)c2ccccc2-c2ccccc2CO[C@H]1CN(C)Cc1ccc(F)cc1 | 1.8 | x | x | i | -6 | -33 | -2.8 | x | x
O=C1c2ccccc2C(=O)c2c1ncn2-c1ccccc1 | x | 7% | 1.7 | x | x | x | x | -4 | 0.7
Cc1cc(=O)n2c3c(c4c(cc13)c(CN(C)C)cc(=O)n4C)OC2 | -2.7 | -8% | -2.2 | i | -56 | -73 | -13 | x | x
O=C(CSc1nnc(CNC(=O)c2cccs2)o1)Nc1ccc2c(c1)OCO2 | x | 33% | -0.1 | x | x | x | x | 46 | 0.64
CCOC(=O)N1CCC(NC(=O)c2cc3ccccn3n2)CC1 | -24 | 7% | 3.0 | i | 5 | 3 | -9.3 | x | 0.7
Cc1[nH]n(-c2c(Cl)cc(Cl)cc2Cl)c(=O)c1C=Nc1ccc(S(=O)(=O)N2CCOCC2)cc1 | x | x | -1.8 | x | x | x | x | -4 | 0.69
CC[C@]12c3[nH]c4ccccc4c3CCN1C(=O)C(CC(=O)NCCCN(C)C)C[C@@H]2C(=O)N1CCN(C(=O)c2ccco2)CC1 (some centres undefined) | -1.4 | x | -2.2 | i | 1 | 13 | -0.6 | 3 | x
O=C(CSc1nnc(CNC(=O)c2c(F)cccc2F)o1)NCc1ccc2c(c1)OCO2 | 0.5 | x | 1.0 | i | x | x | x | x | x
O=C(O)CCC(=O)NNC(=O)c1cccc(Cl)c1 | x | 9% | -2.7 | x | x | x | x | 1 | 0.67
Cc1cc(C)n(Cc2cccc(C(=O)N/N=C/c3ccncc3)c2)n1 | 1.1 | x | 4.1 | i | 2 | 7 | 1.1 | 10 | x
CCOc1ccc2nc(SCC(=O)NCc3ccccc3OC)[nH]c2c1 | 0.4 | 4% | 2.6 | i | -10 | -13 | 2.4 | -14 | 0.68

Some of these compounds in order of heavy-atom count, low to high:
SMILES | AF4-AF9 inh | Vif TR-FRET | HNF4A DNA FP | FGF22 binding | rRNA inh HTS | rRNA inh HTS OD600 | rRNA inh HTS RFP | ALR H2O2 inh | E coli growth
Cc1cc(C)n(-c2nc(C(=O)O)cs2)n1 | -2.7 | 6% | 0.2 | i | 11 | 6 | -0.5 | -15 | 0.65
CCOC(=O)N1CCC(NC(=O)c2cc3ccccn3n2)CC1 | -24 | 7% | 3.0 | i | 5 | 3 | -9.3 | x | 0.7
Cc1[nH]n(-c2c(Cl)cc(Cl)cc2Cl)c(=O)c1C=Nc1ccc(S(=O)(=O)N2CCOCC2)cc1 | x | x | -1.8 | x | x | x | x | -4 | 0.69

Remaining list, next part
SMILES | AF4-AF9 inh | Vif TR-FRET | HNF4A DNA FP | FGF22 binding | rRNA inh HTS | rRNA inh HTS OD600 | rRNA inh HTS RFP | ALR H2O2 inh | E coli growth
Cc1ccc(NC(=S)NCc2ccc(S(N)(=O)=O)cc2)c(C)c1 | -2.1 | x | -3.2 | i | -35 | -34 | -4.3 | -2 | 0.67
COC(=O)[C@@]12C[C@@H](CC(=O)N3CCCC3)C(=O)N(Cc3ccccc3)C1=CCC(C)(C)C2 | 0.5 | x | -3.9 | i | 1 | -9 | 7.4 | x | x
COC(=O)c1c(/N=C/N(C)C)sc2c1CCN(c1ncc(C(F)(F)F)cc1Cl)C2 | x | 6% | 0.6 | x | x | x | x | 0 | x
CC(c1ccccc1)N1CC(C(=O)N2CCN(Cc3ccc(C#N)cc3)CC2)CC1=O (centres undefined) | u | -3% | -1.2 | i | 2 | 1 | -0.5 | x | 0.71
COc1ccc(-n2nc3ccc(N)cc3n2)cc1Cl | -2.1 | 6% | -1.7 | i | -1 | 12 | -3.9 | u | 0.68
O=C1CC(c2ccc(Cl)cc2)CC(O)=C1C=NCCN1CCNCC1 (centres undefined) | x | 0% | x | x | x | x | x | -7 | 0.68
O=C(COC(=O)c1ccc(OC(F)(F)F)cc1)Nc1ncccn1 | -5.6 | 27% | -7.8 | i | x | x | x | -6 | 0.67
COc1cc(CC(=O)N2CCN(C(=O)C3CCCO3)CC2)cc(OC)c1OC (centres undefined) | -0.7 | -5% | -2.9 | i | 9 | 17 | -0.4 | -1 | 0.71
Cc1ccc(S(=O)(=O)c2nc(S(=O)(=O)c3ccc(C)cc3)c(NCc3ccco3)s2)cc1 | -2.5 | -22% | -4.0 | i | -7 | -2 | -0.2 | -5 | 0.7
O=C(NCCO)/C(=C/c1ccco1)NC(=O)c1ccco1 | -2.1 | x | -0.6 | i | 4 | 9 | 2.7 | -6 | 0.61
COc1ccc(O)c(C(=O)c2cnc3c(c2)c(-c2ccc(F)cc2)c(C#N)c(=O)n3C)c1 | 3.1 | 7% | 2.0 | i | -17* | 6.3* | 1.2* | -9 | 0.68
C[C@H]1CN([C@@H](C)CO)C(=O)c2cc(C#Cc3ccncc3)cnc2O[C@H]1CN(C)C(=O)c1ccccc1F | -6.2 | x | x | i | -1 | 4 | 0.4 | x | x
O=C(OCC(=O)N1CCc2ccccc21)c1ccc(Cl)nc1 | x | 20% | -0.1 | x | x | x | x | -1 | 0.74
O=C(O)c1ccn(COc2ccc(Br)cc2)n1 | -2.3 | 1% | 0.2 | i | 12 | 10 | -1.4 | -5 | 0.69
C[C@@H]1CCCCO[C@@H](CN(C)Cc2ccccc2)[C@H](C)CN([C@@H](C)CO)C(=O)c2cc(NC(=O)Nc3ccccc3)ccc2O1 | 12 | x | x | i | 1 | -5 | 0.4 | x | x
Cc1ccc(NC(=O)COC(=O)c2cccc(N3C(=O)c4ccccc4C3=O)c2)cc1 | 7.1 | 3% | -0.2 | i | 8 | -1 | -2.6 | -1 | 0.72
CCOCCCNc1ncnc2c1nc1n2CCCC1 | -1.5 | 3% | 2.1 | i | 7 | 10 | 2.1 | -6 | 0.69
COCCc1nnc(NC(=O)Cc2ccccc2)s1 | x | 4% | 0.8 | x | x | x | x | 1 | 0.74
C[C@@H]1CCCCO[C@@H](CN(C)Cc2ccncc2)[C@@H](C)CN([C@@H](C)CO)C(=O)c2cc(NC(=O)Nc3ccc4c(c3)OCO4)ccc2O1 | 6.1 | x | x | i | 0 | 0 | -0.3 | x | x
CCCC(=O)Nc1sc2c(c1C(=O)Nc1ccccn1)CCCC2 | 2.7 | 6% | 8.9 | i | -30* | 8.4* | -5.0* | 97* | 0.69
O=C(CSc1nnc(COc2ccccc2)o1)Nc1nccs1 | -1.0 | u | 2.7 | i | -9 | -7 | -4.2 | 6 | 0.7
CCc1noc(C)c1C(=O)N1CCN(S(=O)(=O)c2ccc(Br)cc2)CC1 | -4.9 | 3% | 0.6 | i | 9 | 2 | 4.1 | -5 | 0.7
COc1ccc(NC(=O)CSc2nc3c(c(=O)n2C)SCC3)cc1OC | -1.2 | x | -1.5 | i | -4 | -14 | -1.1 | 99* | 0.7
O=S(=O)(Nc1cccc(-n2cnnn2)c1)c1cnc(Cl)c(Cl)c1 | 1.0 | -6% | -0.3 | i | -2 | -12 | -3.8 | 17 | 0.68
CCCCN(C=O)c1c(CC)nc2c(OCC(=O)C(C)(C)C)cccn12 | -0.8 | x | 0.0 | i | 6 | 7 | 3.4 | x | x
COc1ccccc1NC(=O)Nc1nc(CC(=O)NCc2c(F)cccc2F)cs1 | -1.5 | -1% | -1.8 | x | 6 | 5 | 1.4 | x | 0.69
C[C@H]1CN([C@@H](C)CO)C(=O)c2cc(NC(=O)Cc3ccccc3)ccc2O[C@@H]1CN(C)S(=O)(=O)c1ccccc1 | -1.7 | x | x | i | -3 | -4 | 0.3 | x | x
CCOc1cc(C(=O)NC(=S)Nc2ccc(Cl)c(C(=O)O)c2)cc(OCC)c1OCC | 5.3 | 29% | -0.9 | i | -6 | 5 | 15 | 27 | 0.68
O=C(c1cccn2c(=O)c3cc(Cl)ccc3nc12)N1CCOCC1 | x | -4% | 2.9 | x | x | x | x | -5 | 0.71
CC1(C(=O)OCC(=O)Nc2ccc3ccccc3c2)CC1(Cl)Cl (centres undefined) | -1.8 | -9% | -0.7 | i | -19 | -42 | 4.3 | -34 | 0.64
O=C(CC(=O)NCCc1ccccc1)NCCc1ccccc1 | -2.1 | x | -1.0 | i | -1 | -1 | 3.5 | -9 | 0.67
CCCCOC(=O)CSc1nc2c(c(=O)[nH]c(=O)n2C)n1C/C=C(\C)Cl | x | u | 0.9 | x | x | x | x | 31 | 0.71
COc1ccc(C2C(C(=O)Nc3cc(C)on3)c3ccccc3C(=O)N2C)cc1OC (centres undefined) | x | 26% | 2.3 | x | x | x | x | -2 | 0.66
COc1ccc(S(=O)(=O)N(C)C[C@H]2Oc3ccc(NC(=O)Nc4ccc(C(F)(F)F)cc4)cc3CC(=O)N([C@@H](C)CO)C[C@@H]2C)cc1 | -0.4 | x | x | i | 2 | 4 | 1.7 | x | x
O=S1(=O)NC2c3ccccc3CC2O1 (centres undefined) | -0.5 | x | 3.1 | i | 7 | 1 | 18 | -4 | 0.67
Cc1ccc(C(C(=O)NCc2ccco2)N(CC2CCCO2)C(=O)Cn2nnc3ccccc32)cc1 (centres undefined) | x | 4% | -0.8 | x | x | x | x | 0 | 0.73
O=C1c2ccccc2C(=O)N1OCc1cccc(Cl)c1 | x | -2% | -0.8 | x | x | x | x | 29 | 0.71
COc1ccc(CN(C)C[C@H]2Oc3c(NS(=O)(=O)c4ccccc4)cccc3C(=O)N([C@H](C)CO)C[C@@H]2C)cc1 | -0.3 | x | x | i | 0 | 2 | 1.3 | x | x
O=C(NCc1ccco1)C(=O)NCC(c1ccco1)N1CCOCC1 (centres undefined) | -5.3 | u | 0.8 | i | 11 | 14 | 2.1 | -9 | 0.73
Cc1cc(=O)oc(C)c1C(=O)N1CCN(c2ccc(F)cc2)CC1 | x | 14% | -0.2 | x | x | x | x | 8 | 0.72

The list is partial; the hit share may differ from the screen's.
